Polio RdRp inh = poliovirus RNA polymerase inhibition; P03300; % elongation, % (compound at 16.7 µg/mL); poliovirus polymerase elongation, fluorescence polarization; active compounds read low; 0.66% of 150,000 active; in the data active = % elongation below about 90%; note: some results filed as inactive read as strong as hits
Target sequence (P03300 1749-2209 limits assumed): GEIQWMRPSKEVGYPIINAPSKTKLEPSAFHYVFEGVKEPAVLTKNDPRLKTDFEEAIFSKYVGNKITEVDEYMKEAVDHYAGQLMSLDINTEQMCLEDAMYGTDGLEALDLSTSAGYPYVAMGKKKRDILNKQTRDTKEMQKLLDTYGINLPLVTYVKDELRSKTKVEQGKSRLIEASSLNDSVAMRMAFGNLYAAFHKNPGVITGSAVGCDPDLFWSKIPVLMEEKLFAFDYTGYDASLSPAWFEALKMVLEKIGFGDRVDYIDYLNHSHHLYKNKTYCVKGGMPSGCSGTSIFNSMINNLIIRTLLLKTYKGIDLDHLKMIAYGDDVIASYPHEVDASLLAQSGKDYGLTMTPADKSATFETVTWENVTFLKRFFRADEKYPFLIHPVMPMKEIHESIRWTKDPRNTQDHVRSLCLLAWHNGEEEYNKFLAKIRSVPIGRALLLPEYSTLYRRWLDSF
Polio RdRp inh intensity = second read-out of Polio RdRp inh, no call of its own (marks repeat the call); % elongation; measured here: total intensity read-out; formula for this scale not given here;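 total fluorescence in place of polarization; lower means less elongation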
* hit, by the source's call.

SMILES	Polio RdRp inh	Polio RdRp inh intensity
Cc1cc(C)c2c(CC(=O)Nc3c(C(=O)Nc4ccc(Cl)cc4)oc4ccccc34)coc2c1	115	118
COc1cc(OC)cc(-n2c(=O)c3ccccc3n(CC(=O)NCCc3ccc(OC)c(OC)c3)c2=O)c1	108	113
Cc1cc(C)cc(OCCn2c(CCNC(=O)C3CCCCC3)nc3ccccc32)c1	103	109
COc1ccc(CCn2cc3c(c2-c2ccccc2Br)c(=O)n(C)c(=O)n3C)cc1OC	106	111
COc1cc(NC(=O)CCc2c(C)nc3cc(-c4ccccc4)nn3c2C)cc(OC)c1OC	106	111
CCN1CCN(Cc2c(O)ccc3c(C)c(-c4ccccc4)c(=O)oc23)CC1	108	106
Cc1nc2nc(CNC(=O)OC(C)(C)C)nn2c(C)c1CCC(=O)NCc1ccc(F)cc1	110	107
CCCCc1ccc(NC(=O)CSc2nc(=O)[nH]c3c2CCCC3)cc1	107	108
COc1ccc(OC)c(-n2cnc3cc(C(=O)NC4CCCCCC4)ccc32)c1	103	112
Cc1ccc2nc(CN3CCN(C(=O)Nc4cccc(C)c4C)CC3)oc2c1	106	108
Cc1ccc2c(c1)N(C(=O)N1CCC(C(=O)Nc3cccc(F)c3)CC1)CCO2	107	103
COc1ccc(-c2csc(-c3nc(-c4ccc(Br)s4)cs3)n2)cc1F	101	107
CCCn1c(CCC(=O)Nc2cccc(CC)c2)nc2cccnc21	110	118
CCN(CC)c1ccc(NC(=O)Cn2ncc3c(C)n(Cc4ccccc4F)c(C)c3c2=O)c(C)c1	109	110
Cn1c(=O)[nH]c(=O)c2c1nc1n(CCO)c(-c3ccccc3)cn21	103	114
O=C(Nc1ccc(F)cc1F)c1cnn(-c2ccc(F)cc2)c1-n1cccc1	111	112
COc1cccc2cc(C(=O)Nc3ccc(CC(=O)O)cc3)c(=O)oc12	102	109
Cc1c(C(=O)NCc2cccc(Cl)c2)sc2nc[nH]c(=O)c12	103	110
CN1C(C(=O)Nc2ccc(OC(F)(F)F)cc2)=CC(c2cccs2)=NS1(=O)=O	113	110
COc1ccc(CNC(=O)Cc2c(C)c3cc4c(C)coc4c(C)c3oc2=O)cc1OC	113	113
Cc1cccc(NC(=O)Cn2c(=O)n(CCCCCC(=O)NCc3ccccc3)c(=O)c3sccc32)c1	102	104
Cc1noc2ncnc(N3CCCC(C(=O)Nc4cccc(C(F)(F)F)c4)C3)c12 (centres undefined)	109	111
COc1ccc(-c2cnn3c(C)cc(C)nc23)cc1OC	99	89
COc1ccc(-c2noc(CSc3nnc(-c4ccccc4)n3-c3ccc(F)cc3)n2)c(OC)c1	106	94
COc1cc(OC)cc(C(=O)Nc2cc(-c3nc4cc(Cl)ccc4o3)ccc2Cl)c1	107	106
Cc1nc2cccnc2n1-c1cccc(C(=O)N2CCN(c3cccc(Cl)c3)CC2)c1	115	111
COc1cc(C(=O)N2CCc3c([nH]c4ccccc34)C2c2ccc(F)cc2)cc(OC)c1OC (centres undefined)	112	102
COc1ccc(CNC(=O)c2nc(SC(C)C)ncc2Cl)cc1	105	100
CCOc1ccc(NC(=O)CCNS(=O)(=O)c2cccc3nsnc23)cc1	108	111
COc1ccccc1/C=C/c1nc(C#N)c(N(C)C)o1	107	108
Cc1ccc(-n2ncc(C(=O)NCCN3CCN(C)CC3)c2C2CCN(C(=O)OC(C)(C)C)CC2)cc1C	110	111
Cc1ccc(-c2cc(C(F)(F)F)c(C#N)c(SCC(=O)O)n2)cc1	105	106
COc1ccc(S(=O)(=O)c2c(SC)nn(CC(=O)Nc3ccc(C)c(Cl)c3)c2N)cc1	115	115
Cc1cccc(NC(=O)CCS(=O)(=O)c2ccc3c(c2)n(C)c(=O)c(=O)n3C)c1C	104	101
COc1ccc(NC(=O)C(=O)Nc2ccc3nc4n(c(=O)c3c2)CCCCC4)c(OC)c1	102	102
COc1ccccc1NC(=O)C1=C(C)Nc2c(C(=O)Nc3cccc(C)c3)cnn2C1c1ccccc1C (centres undefined)	104	105
CC(C)OCCCNC(=O)CCCn1c(SCC(=O)c2ccc(Br)cc2)nc2c(sc3ccccc32)c1=O	108	111
Cc1cc(C)c2c(=O)cc(CSc3n[nH]c(C)n3)[nH]c2c1	107	118
Cc1ccc(CNC(=O)c2c(C)oc3ncnc(N4CCOCC4)c23)cc1	103	107
CC(=O)c1ccc(NC(=O)C2CCC(CNS(=O)(=O)c3cccc4nsnc34)CC2)cc1 (centres undefined)	106	106
Cc1nnc(N2CCCC(C(=O)NCCc3ccc(Cl)cc3)C2)c2nn(-c3ccccc3)c(C)c12 (centres undefined)	107	101
O=C(C1CCC1)N1CCCc2cc(S(=O)(=O)Nc3ccc(F)cc3)ccc21	102	106
CCc1ccc(NC(=O)CSc2nc3c(c(=O)[nH]2)CN(Cc2ccc(C)cc2)CC3)cc1	124	112
O=C(C1CCN(S(=O)(=O)Cc2ccccc2)CC1)N1CCN(c2cccc(Cl)c2)CC1	109	112
Cc1cccc(C)c1NC(=O)NCCCN1CCN(c2ccccc2)CC1	105	102
CCc1ccccc1NC(=O)c1ccc2c(c1)N(Cc1cccc(Cl)c1)C(=O)c1ccccc1S2(=O)=O	107	111
COc1ccc(-c2ccnc3c2c(=O)n(C)c(=O)n3C)cc1OC	107	111
CC(C)(C)C(=O)Nc1cccc(C(=O)OCc2cc(=O)n3nc(C4CCCCC4)sc3n2)c1	105	96

The list goes on, starting with the last 7 of the part before.
SMILES	Polio RdRp inh	Polio RdRp inh intensity
O=C(C1CCC1)N1CCCc2cc(S(=O)(=O)Nc3ccc(F)cc3)ccc21	102	106
CCc1ccc(NC(=O)CSc2nc3c(c(=O)[nH]2)CN(Cc2ccc(C)cc2)CC3)cc1	124	112
O=C(C1CCN(S(=O)(=O)Cc2ccccc2)CC1)N1CCN(c2cccc(Cl)c2)CC1	109	112
Cc1cccc(C)c1NC(=O)NCCCN1CCN(c2ccccc2)CC1	105	102
CCc1ccccc1NC(=O)c1ccc2c(c1)N(Cc1cccc(Cl)c1)C(=O)c1ccccc1S2(=O)=O	107	111
COc1ccc(-c2ccnc3c2c(=O)n(C)c(=O)n3C)cc1OC	107	111
CC(C)(C)C(=O)Nc1cccc(C(=O)OCc2cc(=O)n3nc(C4CCCCC4)sc3n2)c1	105	96
Cc1ccc(CNC(=O)c2ccc(CSCc3ccc(C)cc3)o2)cc1	112	110
Cc1ccc(-n2c(/C=C/c3cc(Br)cs3)nc3ccccc3c2=O)cc1C	103	110
CCC(=O)Nc1nnc(S(=O)(=O)N(C)Cc2ccccc2)s1	108	106
COCCCNC(=O)CSc1nc2c(sc3ccccc32)c(=O)n1CCc1ccccc1	103	105
Cc1ccc(CN2CCSc3ccc(C(=O)Nc4cc(C)cc(C)c4)cc32)cc1	105	108
O=C(c1ccc2c(c1)CCN2S(=O)(=O)c1ccccc1)N1CCN(c2ccccc2F)CC1	110	109
CCOc1ccc(CCNC(=O)C2Cc3ccccc3N2C(=O)CC)cc1OCC (centres undefined)	103	107
CCOc1nc(NC(=O)NS(=O)(=O)Oc2ccc(Cl)cc2)nc(-c2ccccc2)n1	108	107
Cc1cc(C)c(S(=O)(=O)NCCc2cc3ccc(C)cc3[nH]c2=O)c(C)c1	103	111
O=C(CCCCn1c(=O)[nH]c2ccsc2c1=O)N1CCN(c2cccc(Cl)c2)CC1	109	108
CC(CNC(=O)c1ccc(Cn2c(SCc3ccccc3)nc3cccnc32)cc1)c1ccccc1 (centres undefined)	110	115
COc1ccc(C(=O)CN2C(=O)N(c3cc(C)ccc3C)S(=O)(=O)c3ccccc32)cc1	107	107

Complete entries as entered above:
`COc1ccc(C(=O)CN2C(=O)N(c3cc(C)ccc3C)S(=O)(=O)c3ccccc32)cc1` reads Polio RdRp inh = 107; Polio RdRp inh intensity = 107
`CCOc1ccc(CCNC(=O)C2Cc3ccccc3N2C(=O)CC)cc1OCC` (centres undefined) reads Polio RdRp inh = 103; Polio RdRp inh intensity = 107

(more compounds)
SMILES	Polio RdRp inh	Polio RdRp inh intensity
CCc1ccccc1N(C)C(=O)c1nn(-c2ccc(OC)cc2)c(=O)c2c1c1ccccc1n2C	113	101
CCc1ccc(NC(=O)CC2C(=O)N(c3cccc(C)c3)C(=O)N2Cc2ccco2)cc1 (centres undefined)	115	109
COc1cccc(-n2cc(C(=O)Nc3cccc(C(F)(F)F)c3)c3ccccc3c2=O)c1	111	113
O=C(CCC(=O)N1Cc2ccccc2Oc2ncccc21)Nc1ccc(Cl)cc1	102	112
COc1cccc(NC(=O)c2sc3nc(N4CCOCC4)c4c(c3c2N)CC(C)(C)OC4)c1	105	113
COc1ccc(CNCc2ccc3c(c2)n(C)c(=O)n3C)cc1	111	113
Cc1ccc(C)c(N2CCN(C(=O)C3CCN(S(=O)(=O)c4ccc5[nH]c(=O)oc5c4)CC3)CC2)c1	110	110
Cc1ccccc1NC(=O)/C(C#N)=C/c1ccc(Cl)cc1Cl	103	105
CCC1CN(C(=O)N2CCC(C(=O)NCc3ccc(OC)cc3OC)CC2)c2cc(C)ccc2O1 (centres undefined)	108	108
Cc1sc2ncn(CC(=O)Nc3cccc(C(F)(F)F)c3)c(=O)c2c1S(=O)(=O)N1CCC(C)CC1	106	109
Cc1ccc(CN(Cc2ccco2)C(=O)COc2c(C)cc(C)cc2C)cc1	106	111
Cc1ccc(Sc2ccc(N3CCC(C(=O)Nc4ccc(C)c(F)c4)CC3)nn2)cc1	109	111
Cc1cc(C(=O)Nc2cccc(C)c2C)c2c(C)nn(-c3cccc(F)c3)c2n1	111	113
CCc1ccccc1NC(=O)CN1C(=O)CCn2nc(-c3cccn3C)cc21	109	114
COC(=O)c1c(-c2cccs2)csc1NC(=O)c1ccc(C)cc1	76*	70*
Cc1ccc(N2CCN(C(=O)c3cnc(N4CCCCC4)c4ccccc34)CC2)c(C)c1	106	110
COc1ccc(N2CC(NC(=O)C(c3ccccc3)c3ccccc3)CC2=O)cc1OC (centres undefined)	107	104
CCc1ccc2c(c1)NC(c1ccc(OC)cc1)=NC(c1ccncc1)=N2	108	113
Cc1ccc2c(CC(=O)N(Cc3cccc(Cl)c3)C3CCS(=O)(=O)C3)coc2c1 (centres undefined)	119	119
O=C(NCc1cccc(Br)c1)C1CCCCN1S(=O)(=O)c1ccc(F)cc1 (centres undefined)	106	104
O=c1c2sc3ccccc3c2n(Cc2ccc(F)cc2Cl)c(=O)n1Cc1ccccc1	106	110
CCOc1ccc(CNC(=O)Cn2nc(N3CCN(c4ccccc4)CC3)ccc2=O)cc1	117	114
O=c1cc(-c2ccccc2)n2c(SCc3ccc(F)cc3)nnc2[nH]1	112	109
Cc1cc(NC(=O)CSc2nc3c([nH]c4ccccc43)c(=O)n2-c2ccccc2F)no1	110	105
COc1ccc(S(=O)(=O)N(CC(=O)N(C)Cc2ccccc2)c2ccc(Cl)cc2)cc1	107	109
CCOc1ccc(CNC(=O)Cc2ccc(NC(=O)N3CCSc4ncccc43)cc2)cc1	103	106
Cc1cccc(-n2c(=O)c3c(c4cc(C)ccc4n3C)n(CC(=O)Nc3ccc(C)c(C)c3)c2=O)c1	104	102
CCn1c(CN2CCN(C)CC2)nc2ccccc21	104	101
COc1ccc(CCNC(=O)CCS(=O)(=O)c2ccc3c(c2)oc(=O)n3C)cc1OC	105	98
Cc1cn2c(=O)cc(COC(=O)c3cccc(NC(=O)COc4ccc(Cl)cc4)c3)nc2s1	102	106
O=C(Nc1cccc(Cl)c1)C1CCN(S(=O)(=O)Cc2ccccc2)CC1	109	116
CC(C)CCN1C(=O)c2ccccc2CC1(C)C(=O)NC1CCC(C)CC1 (centres undefined)	112	117
CCN(CC)c1ncnc2c1cnn2-c1cc(Cl)ccc1C	107	111
CSc1ccc(CCNC(=O)NCc2noc3ccccc23)cc1	104	104
CCOc1cccc(CNC(=O)c2ccc(N3CCCC3)c(NC(=O)NCc3ccc(F)cc3)c2)c1	107	103
O=C1c2[nH]nc(-c3ccc(Br)cc3)c2C(c2cccc(O)c2)N1c1ccc(Cl)cc1 (centres undefined)	109	108

Brought forward from above: 2 entries, followed by the next part.
SMILES	Polio RdRp inh	Polio RdRp inh intensity
CCOc1cccc(CNC(=O)c2ccc(N3CCCC3)c(NC(=O)NCc3ccc(F)cc3)c2)c1	107	103
O=C1c2[nH]nc(-c3ccc(Br)cc3)c2C(c2cccc(O)c2)N1c1ccc(Cl)cc1 (centres undefined)	109	108
COc1ccc(CNC(=O)c2cnc3sc(N4CCCCCC4)nn3c2=O)cc1	108	115
Cc1cccc(NC(=O)CSc2nc3ccc(NC(=O)COc4ccccc4C)cc3s2)c1	111	112
COCCNc1oc(/C=C/c2ccc(F)cc2)nc1C#N	114	117
CCC(Oc1ccccc1-c1nnc(-c2ccccc2)o1)C(=O)Nc1ccc(C(C)=O)cc1 (centres undefined)	109	97
COc1ccc(Cn2c(=O)c3oc4ccccc4c3n(CC(=O)Nc3c(C)cccc3C)c2=O)cc1	104	102
CCN(CC)S(=O)(=O)c1ccc(C(=O)NC2CC(=O)N(c3ccc4c(c3)OCCO4)C2)cc1 (centres undefined)	110	103
CCc1ccc(NC(=O)Cn2nnc(C(=O)NCc3ccc(C)cc3)c2N)cc1	100	108
Cc1nn(C(=O)c2ccc(Cl)cc2)c(C)c1S(=O)(=O)N1CCCCCC1	102	107
COc1ccccc1C(=O)Nc1cc2c(cc1N1CCCC1)n(C)c(=O)c(=O)n2C	112	109
CCN1CCN(CCCNC(=O)c2ccc3c(c2)sc2nc(-c4ccc(OC)cc4)cn23)CC1	96	80
Cc1cccc(NC(=O)CSc2nc(=O)n(CCN3CCOCC3)c3c2CCC3)c1	108	108
CCN1C(=O)c2ccccc2Sc2ccc(NC(=O)c3ccc(C#N)cc3)cc21	108	112
N#C/C(=C/c1cn(Cc2ccc(F)cc2)c2ccccc12)C(=O)Nc1cccc(Cl)c1	109	112
COc1ccc(N(Cc2cccs2)C(=O)COc2cc(C)c(Cl)c(C)c2)cc1	102	101
COc1ccccc1NC(=O)C(=O)NCC(c1cccnc1)N1CCc2ccccc2C1 (centres undefined)	109	112
COc1ccc(C(CNC(=O)COc2cc(C)cc(C)c2)N2CCCCC2)cc1 (centres undefined)	107	108

Some of the compounds tested; rates above refer to the full screens.
